Env fusion inh: HIV envelope-mediated fusion inhibition; HeLa-JRFL Env/CEM21 cell fusion, luciferase; inhibition, % at 12.3 µM; 1.1% of 360,000 active; AID 651610;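 active means mean replicate inhibition score of at least 50 and every replicate individually at or above 50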;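 further: 0% = plate neutral controls and 100% = maraviroc near 300 nM; one replicate is shown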
Yeast UUG start: alters start codon recognition fidelity in yeast; S. cerevisiae UUG-firefly luciferase reporter, luminescence/redox ratio; activity score, % at 18.7 µM; 0.13% of 350,000 active; AID 602363;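 active means replicate mean at a twofold rise or more, about +100% in these data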;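 further: firefly luciferase made from a UUG start codon reports start codon fidelity; reporter light over untreated wells divided by growth signal over untreated wells; some hits fall short of that in this replicate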
* hit, by the source's call; i = inactive; [ ] = another dose, or the depositor's remark. A portion of the library; rates above refer to the full screens.

Under each structure: Yeast UUG start | Env fusion inh
COc1ccc(CN(C)C[C@@H]2OCCCC[C@H](C)Oc3ccc(NS(=O)(=O)c4cccs4)cc3C(=O)N([C@@H](C)CO)C[C@@H]2C)cc1
  20.0 | -5.4[16.7 µM]
COc1ccc(S(=O)(=O)Nc2ccc3c(c2)CC(=O)N([C@@H](C)CO)C[C@H](C)[C@@H](CN(C)C(=O)Nc2ccccc2)O3)cc1
  8.8 | 5.5[16.7 µM]
COc1ccc(S(=O)(=O)Nc2ccc3c(c2)CC(=O)N([C@H](C)CO)C[C@@H](C)[C@@H](CN(C)C(=O)Nc2cccc4ccccc24)O3)cc1
  -3.1 | -43.7[16.7 µM]
Cc1noc(C)c1NC(=O)Nc1ccc2c(c1)CC(=O)N([C@H](C)CO)C[C@@H](C)[C@@H](CN(C)S(=O)(=O)c1ccc(Cl)cc1)O2
  9.8 | 7.8[16.7 µM]
C[C@H]1CN([C@@H](C)CO)C(=O)c2cc(NC(=O)Cn3cnnn3)ccc2O[C@@H]1CN(C)Cc1ccc(Cl)c(Cl)c1
  36.1 | 1.5[16.7 µM]
O=C(C[C@H]1CC[C@@H]2[C@H](COC[C@H](O)CN2C(=O)c2cnccn2)O1)NCc1ccc(F)cc1
  -7.6 | -2.0[16.7 µM]
C[C@@H]1CN([C@H](C)CO)C(=O)c2cc(-c3cccc(F)c3)cnc2O[C@H]1CN(C)C
  -6.9 | -22.4[16.7 µM]
COc1ccc([C@@H]2C=C(C(=O)N3CCCCC3)O[C@H](OCc3ccc(CO)cc3)C2)cc1
  8.8 | 1.2[16.7 µM]
Cc1noc(C)c1NC(=O)N[C@@H]1C=C[C@H](CC(=O)Nc2ccccc2)O[C@@H]1CO
  -7.4 | -17.3[16.7 µM]
CC(C)NC(=O)Nc1ccc2c(c1)C(=O)N([C@@H](C)CO)C[C@@H](C)[C@@H](CN(C)C(=O)Nc1ccc(C(F)(F)F)cc1)OCCCC[C@H](C)O2
  2.8 | -43.0[16.7 µM]

Under each structure: Yeast UUG start | Env fusion inh
O=C(C[C@H]1C[C@H]2c3cc(NC(=O)C4CCC4)ccc3O[C@H]2[C@H](CO)O1)NCc1ccccc1F
  10.5 | 1.3[16.7 µM]
C[C@H](CO)N1C[C@H](C)[C@@H](CN(C)Cc2ccncc2)OCCCC[C@H](C)Oc2ccc(NC(=O)NC3CCCCC3)cc2C1=O
  15.6 | -6.6[16.7 µM]
COCC(=O)N(C)C[C@@H]1Oc2ncc(C#Cc3ccncc3)cc2C(=O)N([C@H](C)CO)C[C@@H]1C
  -2.3 | -2.1[16.7 µM]
C[C@@H]1CN([C@@H](C)CO)C(=O)c2cccc(NS(=O)(=O)c3cn(C)cn3)c2O[C@@H]1CN(C)Cc1ccc2c(c1)OCO2
  -14.8 | -14.3[16.7 µM]
Cc1noc(C)c1S(=O)(=O)Nc1ccc2c(c1)CC(=O)N([C@H](C)CO)C[C@H](C)[C@@H](CN(C)C(=O)Nc1ccc(C(F)(F)F)cc1)O2
  -3.9 | 3.0[16.7 µM]
CO[C@H]1CN(C)C(=O)c2ccc(NC(=O)c3ccc(F)cc3)cc2OC[C@H](C)N(C)C[C@H]1C
  -5.1 | 2.9[16.7 µM]
N#C[C@@H]1[C@@H](c2ccc(C#CC3CCCCC3)cc2)[C@H](CO)N1C(=O)c1cccc(F)c1
  22.2 | 39.6[16.7 µM]
CCNC(=O)C[C@H]1C=C[C@@H](NC(=O)C2CCC2)[C@H](CO)O1
  3.3 | -6.5[16.7 µM]
C[C@@H]1CN([C@H](C)CO)C(=O)c2cccc(NC(=O)Nc3ccccc3)c2O[C@@H]1CN(C)C(=O)Nc1ccc(C(F)(F)F)cc1
  -6.7 | 8.4[16.7 µM]
C[C@@H]1CN([C@H](C)CO)C(=O)Cc2cc(NC(=O)Nc3ccc(C(F)(F)F)cc3)ccc2O[C@@H]1CN(C)CC1CCCCC1
  6.2 | 13.7[16.7 µM]

Under each structure: Yeast UUG start | Env fusion inh
Cc1ccc(S(=O)(=O)Nc2ccc3c(c2)C(=O)N([C@@H](C)CO)C[C@@H](C)[C@@H](CN(C)C(=O)Nc2ccc(C(F)(F)F)cc2)OCCCC[C@H](C)O3)cc1
  -3.1 | -18.6[16.7 µM]
C[C@H](CO)N1C[C@H](C)[C@@H](CN(C)Cc2ccc(Oc3ccccc3)cc2)Oc2ccc(NC(=O)Cc3cn(C)c4ccccc34)cc2C1=O
  19.5 | 1.0[16.7 µM]
COc1ccc(NC(=O)N(C)C[C@@H]2OCCCC[C@@H](C)Oc3ccc(NC(=O)c4ccncc4)cc3C(=O)N([C@H](C)CO)C[C@H]2C)cc1
  1.4 | -6.7[16.7 µM]
O=C(C[C@H]1CC[C@@H](NC(=O)c2ccccn2)[C@H](CO)O1)NCc1cc(F)cc(F)c1
  -5.3 | 15.8[16.7 µM]
O=C(C[C@H]1C=C[C@H](NC(=O)C2CCC2)[C@H](CO)O1)NC1CCC1
  -6.7 | -10.7[16.7 µM]
Cc1noc(C)c1S(=O)(=O)N(C)C[C@@H]1OCCCC[C@H](C)Oc2ccc(NC(=O)c3ccccc3)cc2C(=O)N([C@@H](C)CO)C[C@H]1C
  4.6 | -7.3[16.7 µM]
COc1ccc(NC(=O)N(C)C[C@H]2Oc3ccc(NS(=O)(=O)c4ccc(OC)cc4)cc3CC(=O)N([C@@H](C)CO)C[C@H]2C)cc1
  -0.5 | 7.0[16.7 µM]
C[C@@H]1CCCCO[C@@H](CN(C)Cc2ccncc2)[C@@H](C)CN([C@H](C)CO)C(=O)c2cc(NC(=O)C3CCCCC3)ccc2O1
  -6.7 | 4.2[16.7 µM]
CC(C)NC(=O)Nc1ccc2c(c1)C(=O)N([C@H](C)CO)C[C@@H](C)[C@@H](CN(C)Cc1ccc(Cl)c(Cl)c1)O2
  -7.1 | 11.3[16.7 µM]
C[C@@H]1CCCCO[C@H](CN(C)C(=O)C2CCCCC2)[C@H](C)CN([C@H](C)CO)C(=O)c2cc(NC(=O)C3CCCCC3)ccc2O1
  22.4 | -0.6[16.7 µM]

Under each structure: Yeast UUG start | Env fusion inh
CC(C)c1cn(CC[C@@H]2CC[C@@H](NS(=O)(=O)c3ccccc3)[C@H](CO)O2)nn1
  -16.1 | 5.8[16.7 µM]
O=C(N[C@H]1C=C[C@H](CC(=O)N2CCCCC2)O[C@@H]1CO)c1ccccn1
  1.4 | 2.3[16.7 µM]
COc1ccccc1NC(=O)N[C@H]1CC[C@H](CCn2cc(-c3ccccc3OC)nn2)O[C@@H]1CO
  6.4 | 18.9[16.7 µM]
C[C@H]1CN([C@@H](C)CO)C(=O)c2cc(NC(=O)Cn3cnnn3)ccc2O[C@@H]1CN(C)C(=O)Nc1ccccc1
  -6.0 | -3.3[16.7 µM]
C[C@H]1CN([C@@H](C)CO)C(=O)c2cc(NS(=O)(=O)c3cn(C)cn3)ccc2O[C@H]1CN(C)S(=O)(=O)c1ccc(Cl)cc1
  2.1 | -7.1[16.7 µM]
COc1cccc(S(=O)(=O)N[C@@H]2CC[C@@H](CC(=O)NCc3ccc(F)cc3)O[C@@H]2CO)c1
  3.1 | 9.9[16.7 µM]
COC(=O)C[C@H]1CC[C@H]2[C@H](COc3ccc(NC(=O)Nc4ccc(Cl)cc4)cc3C(=O)N2C)O1
  -2.7 | 34.2[16.7 µM]
C[C@@H]1CN([C@H](C)CO)C(=O)c2cc(C3=CCCCC3)cnc2O[C@H]1CN(C)C(=O)c1ccncc1
  -6.8 | 5.3[16.7 µM]
C[C@@H]1CN([C@@H](C)CO)C(=O)c2cc(NC(=O)CCCN(C)C)ccc2O[C@@H](C)CCCCO[C@@H]1CN(C)C(=O)Cc1ccccc1
  30.2 | -5.8[16.7 µM]
C[C@@H]1CCCCO[C@@H](CN(C)Cc2ccncc2)[C@H](C)CN([C@@H](C)CO)C(=O)c2cc(NC(=O)C3CCCCC3)ccc2O1
  3.7 | 14.7[16.7 µM]

Under each structure: Yeast UUG start | Env fusion inh
C[C@H]1CN([C@@H](C)CO)C(=O)c2cc(-c3cncnc3)cnc2O[C@H]1CN(C)Cc1cncnc1
  0.8 | -6.2[16.7 µM]
O=C(Nc1ccc(F)cc1)N[C@H]1C=C[C@H](CC(=O)N2CCOCC2)O[C@H]1CO
  -2.1 | 11.4[16.7 µM]
COc1ccc(S(=O)(=O)Nc2cccc3c2O[C@H](CN(C)C(=O)NC(C)C)[C@H](C)CN([C@H](C)CO)C3=O)cc1
  10.5 | -9.0[16.7 µM]
C[C@H](CO)N1C[C@H](C)[C@@H](CN(C)C(=O)c2ccccc2)Oc2cc(C#CC3(O)CCCC3)ccc2S1(=O)=O
  11.6 | -46.6[16.7 µM]
O=C(NCC[C@@H]1CC[C@H](NC(=O)C2CC2)[C@@H](CO)O1)Nc1ccc(C(F)(F)F)cc1
  22.9 | -18.9[16.7 µM]
Cc1cc(C)cc(NC(=O)Nc2ccc3c(c2)C(=O)N(C)[C@@H]2CC[C@H](CC(=O)O)O[C@H]2CO3)c1
  -3.8 | 5.2[16.7 µM]
COc1ccccc1-c1ccc2c(c1)O[C@@H](CN(C)C(C)=O)[C@@H](C)CN([C@@H](C)CO)S2(=O)=O
  -0.4 | 14.5[16.7 µM]
C/C=C/c1ccc2c(c1)O[C@@H](CN(C)C(=O)Cc1ccccn1)[C@@H](C)CN([C@H](C)CO)S2(=O)=O
  -5.3 | -9.8[16.7 µM]
CCNC(=O)C[C@@H]1CC[C@H]2[C@H](COc3ccc(NC(=O)c4ccc(C(F)(F)F)cc4)cc3C(=O)N2C)O1
  4.8 | 39.6[16.7 µM]
C[C@H]1CN([C@@H](C)CO)C(=O)c2cc(NC(=O)Nc3ccc4c(c3)OCO4)ccc2O[C@H]1CN(C)Cc1ccc2c(c1)OCO2
  -12.5 | 11.7[16.7 µM]

Under each structure: Yeast UUG start | Env fusion inh
C[C@@H]1CN([C@@H](C)CO)C(=O)c2cc(C#Cc3cccnc3)cnc2O[C@@H]1CN(C)C(=O)CN(C)C
  6.0 | 27.4[16.7 µM]
O=C(N[C@H]1CC[C@H](CCn2cc(-c3ccc(F)cc3)nn2)O[C@@H]1CO)c1cnccn1
  -7.5 | 1.0[16.7 µM]
C[C@H]1CN([C@@H](C)CO)C(=O)Cc2cc(NC(=O)C3CC3)ccc2O[C@H]1CN(C)Cc1ccc2c(c1)OCO2
  -2.9 | 1.6[16.7 µM]
CC(C)NC(=O)Nc1ccc2c(c1)C(=O)N([C@@H](C)CO)C[C@H](C)[C@@H](CN(C)Cc1ccc3c(c1)OCO3)OCCCC[C@H](C)O2
  0.7 | -15.9[16.7 µM]
C[C@H](CO)N1C[C@H](C)[C@@H](CN(C)Cc2ccc(C(F)(F)F)cc2)Oc2ccc(NC(=O)Cc3cn(C)c4ccccc34)cc2C1=O
  10.9 | -0.5[16.7 µM]
C[C@H]1CN([C@@H](C)CO)C(=O)Cc2cc(N(C)C)ccc2O[C@H]1CN(C)Cc1ccccc1
  -17.1 | 7.8[16.7 µM]
Cc1ccc(S(=O)(=O)Nc2cccc3c2O[C@@H](CN(C)CC2CC2)[C@@H](C)CN([C@@H](C)CO)C3=O)cc1
  -6.7 | -2.5[16.7 µM]
CCC(=O)N[C@@H]1C=C[C@H](CC(=O)NCc2ccccc2F)O[C@@H]1CO
  -2.1 | i
C[C@@H]1CCCCO[C@@H](CN(C)S(=O)(=O)c2ccc(F)cc2)[C@@H](C)CN([C@H](C)CO)C(=O)c2cc(NC(=O)CCC(F)(F)F)ccc2O1
  -2.1 | -8.1[16.7 µM]
COc1ccc(NC(=O)N(C)C[C@H]2OCCCC[C@@H](C)Oc3ccc(NC(=O)NC(C)C)cc3C(=O)N([C@H](C)CO)C[C@@H]2C)cc1
  -10.7 | 9.3[16.7 µM]

Among those listed so far, these contain two or more sulfur atoms.
Under each structure: Yeast UUG start | Env fusion inh
COc1ccc(CN(C)C[C@@H]2OCCCC[C@H](C)Oc3ccc(NS(=O)(=O)c4cccs4)cc3C(=O)N([C@@H](C)CO)C[C@@H]2C)cc1
  20.0 | -5.4[16.7 µM]
C[C@H]1CN([C@@H](C)CO)C(=O)c2cc(NS(=O)(=O)c3cn(C)cn3)ccc2O[C@H]1CN(C)S(=O)(=O)c1ccc(Cl)cc1
  2.1 | -7.1[16.7 µM]

New compounds follow.
Under each structure: Yeast UUG start | Env fusion inh
CN(C)CCCNC(=O)C[C@@H]1CC[C@H]2[C@H](COc3ccc(NC(=O)c4cccc(F)c4)cc3C(=O)N2C)O1
  -10.7 | -19.6[16.7 µM]
Cc1noc(C)c1NC(=O)Nc1ccc2c(c1)C(=O)N([C@H](C)CO)C[C@H](C)[C@@H](CN(C)S(=O)(=O)c1cn(C)cn1)OCCCC[C@@H](C)O2
  -14.6 | -12.8[16.7 µM]
C[C@@H](NC(=O)C[C@@H]1C[C@@H]2c3cc(NC(=O)CN(C)C)ccc3O[C@@H]2[C@H](CO)O1)c1ccccc1
  5.3 | -13.6[16.7 µM]
C[C@@H]1CN([C@H](C)CO)C(=O)c2cc(NS(=O)(=O)c3ccc(Cl)cc3)ccc2O[C@@H](C)CCCCO[C@@H]1CN(C)S(C)(=O)=O
  1.4 | 7.7[16.7 µM]
C[C@@H]1CN([C@@H](C)CO)C(=O)c2cc(-c3cccc(F)c3)cnc2O[C@@H]1CN(C)Cc1cccc(F)c1
  -14.5 | 26.5[16.7 µM]
C[C@H](CO)N1C[C@H](C)[C@@H](CN(C)Cc2ccc(Oc3ccccc3)cc2)Oc2ccc(NC(=O)Nc3ccc4c(c3)OCO4)cc2C1=O
  45.5 | 31.5[16.7 µM]
C[C@@H]1CCCCO[C@H](CN(C)Cc2ccc3c(c2)OCO3)[C@@H](C)CN([C@@H](C)CO)C(=O)c2cc(NS(=O)(=O)c3cccs3)ccc2O1
  41.4 | -8.5[16.7 µM]
Cc1noc(C)c1S(=O)(=O)Nc1ccc2c(c1)CC(=O)N([C@@H](C)CO)C[C@@H](C)[C@H](CN(C)Cc1ccc(Cl)c(Cl)c1)O2
  13.4 | 85.2*[16.7 µM]
Cc1noc(C)c1NC(=O)N(C)C[C@@H]1OCCCC[C@H](C)Oc2ccc(NC(=O)CCC(F)(F)F)cc2C(=O)N([C@@H](C)CO)C[C@H]1C
  -2.9 | 4.9[16.7 µM]

Screens: PubChem, Broad Institute
